# Vaccinia inh = Vaccinia orthopox stage-specific inhibition. actives 0.01% (n = 89,000). activity change (mCherry), % (concentration not given with the values). Vaccinia-infected cells, mCherry/Venus stage reporter fluorescence; stronger effect = lower value; some inactives read as strong as hits;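 active = mCherry past -33% and 40 or more points under the early reporter, replicates agreeing; inconclusive = past -33% without that gap or agreement; tested in A549 cells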;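 note: scaled between vehicle wells and reference inhibitor wells; 23 nL library stock went into each well; one replicate is shown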
# Vaccinia inh Venus = further read-out of Vaccinia inh, marked with its call; activity change (Venus), %; measured here: Venus reporter, other viral stage;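 negative = less Venus signal; first of two replicates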
# Active calls of the source: *; ? = inconclusive; nt = not tested or not shown; & = joins results of further samples.
# Every second line gives: Vaccinia inh	Vaccinia inh Venus
COc1ccccc1NC(=O)N(C)C[C@@H]1Oc2ncc(Br)cc2C(=O)N([C@@H](C)CO)C[C@H]1C
    8	5
CCCNC(=O)C[C@H]1C[C@H]2c3cc(NC(=O)C4CCC4)ccc3O[C@H]2[C@H](CO)O1
    30	17
C[C@H]1CN([C@@H](C)CO)C(=O)c2c(c3ccccc3n2C)-c2ccccc2CO[C@@H]1CN(C)S(=O)(=O)c1ccc(F)cc1
    ?	nt
COc1ccc(NC(=O)Nc2ccc3c(c2)C(=O)N([C@H](C)CO)C[C@@H](C)[C@H](CN(C)C(=O)c2ccccc2)OCCCC[C@@H](C)O3)cc1
    -5	-1
N#C[C@@H]1[C@H](c2ccc(C3=CCCC3)cc2)[C@@H](CO)N1C(=O)C1CCCC1
    6	11
C[C@@H]1CN([C@@H](C)CO)C(=O)c2cc(Br)cnc2O[C@H]1CN(C)C(=O)C1CCOCC1
    10	0
COc1ccc2c3c([nH]c2c1)[C@@H](CO)N(C(=O)c1cccnc1)CC31CCN(C(=O)Nc2cccc(F)c2)CC1
    9	5
COc1ccc(S(=O)(=O)Nc2ccc3c(c2)C(=O)N([C@H](C)CO)C[C@@H](C)[C@@H](CN(C)S(=O)(=O)c2ccc(Cl)cc2)OCCCC[C@@H](C)O3)cc1
    -18	-10
C[C@@H]1CN([C@H](C)CO)C(=O)c2cc(N(C)C)ccc2O[C@@H](C)CCCCO[C@H]1CN(C)S(=O)(=O)c1cn(C)cn1
    20	18
Cc1ccc(S(=O)(=O)N2C[C@@H](O)COC[C@H]3O[C@@H](CC(=O)NCC4CCCCC4)CC[C@@H]32)cc1
    -7	-4
C/C=C/c1ccc2c(c1)O[C@@H](CN(C)C(=O)Nc1cc(F)ccc1F)[C@@H](C)CN([C@@H](C)CO)S2(=O)=O
    -30	-19
C[C@H]1CN([C@@H](C)CO)C(=O)Cc2cc(NC(=O)NC3CCCCC3)ccc2O[C@@H]1CN(C)C(=O)Nc1ccccc1
    13	15
C[C@@H]1CN([C@@H](C)CO)C(=O)Cc2cc(NC(=O)Cc3cn(C)c4ccccc34)ccc2O[C@H]1CN(C)Cc1ccccc1
    ?	nt
C[C@H]1CN([C@@H](C)CO)C(=O)c2cc(C3=CCCCC3)cnc2O[C@@H]1CN(C)CC1CCOCC1
    -3	-3
COc1ccc(S(=O)(=O)N(C)C[C@H]2OCCCC[C@@H](C)Oc3ccc(N(C)C)cc3C(=O)N([C@H](C)CO)C[C@@H]2C)cc1
    -7&5	-4&-3

# Entries of single compounds, quoted from the list. Screens in order: Vaccinia inh | Vaccinia inh Venus
# `COc1ccc2c3c([nH]c2c1)[C@@H](CO)N(C(=O)c1cccnc1)CC31CCN(C(=O)Nc2cccc(F)c2)CC1` is listed as 9 | 5
# `C[C@H]1CN([C@@H](C)CO)C(=O)Cc2cc(NC(=O)NC3CCCCC3)ccc2O[C@@H]1CN(C)C(=O)Nc1ccccc1` is listed as 13 | 15
# `CCCNC(=O)C[C@H]1C[C@H]2c3cc(NC(=O)C4CCC4)ccc3O[C@H]2[C@H](CO)O1` is listed as 30 | 17

# Shown tab-delimited: part of the list above.
compound	Vaccinia inh	Vaccinia inh Venus
COc1ccc(S(=O)(=O)Nc2ccc3c(c2)C(=O)N([C@H](C)CO)C[C@@H](C)[C@@H](CN(C)S(=O)(=O)c2ccc(Cl)cc2)OCCCC[C@@H](C)O3)cc1	-18	-10
C[C@H]1CN([C@@H](C)CO)C(=O)c2c(c3ccccc3n2C)-c2ccccc2CO[C@@H]1CN(C)S(=O)(=O)c1ccc(F)cc1	?	nt
C[C@@H]1CN([C@@H](C)CO)C(=O)Cc2cc(NC(=O)Cc3cn(C)c4ccccc34)ccc2O[C@H]1CN(C)Cc1ccccc1	?	nt

# The listing continues.
# Every second line gives: Vaccinia inh	Vaccinia inh Venus
COc1ccccc1CN1C[C@H](C)[C@@H](OC)CN(C)C(=O)c2ccc(NC(C)=O)cc2OC[C@H]1C
    -12	-11
C[C@H]1CN([C@@H](C)CO)C(=O)Cc2cc(NC(=O)Nc3ccc(C(F)(F)F)cc3)ccc2O[C@@H]1CN(C)Cc1ccc(-c2ccccc2)cc1
    -7	0
CNC[C@@H]1OCCCC[C@H](C)Oc2ccc(NS(=O)(=O)c3cn(C)cn3)cc2C(=O)N([C@@H](C)CO)C[C@H]1C
    16	23
OC[C@H]1[C@H]2c3ccccc3NC[C@H]2N1Cc1cccnc1
    -12	-17
C[C@@H]1CN([C@@H](C)CO)C(=O)c2cc(NC(=O)Nc3ccc(C(F)(F)F)cc3)ccc2O[C@@H](C)CCCCO[C@@H]1CN(C)S(=O)(=O)c1ccc(F)cc1
    1	-7
O=C(C[C@@H]1CC[C@H]2[C@@H](COC[C@@H](O)CN2S(=O)(=O)c2ccc(Cl)cc2)O1)NCC1CCCCC1
    -6	-7
O=C(C[C@@H]1C[C@@H]2c3cc(NS(=O)(=O)c4ccc(F)cc4)ccc3O[C@@H]2[C@H](CO)O1)NCc1ccccc1
    0	0
C[C@H]1CN([C@@H](C)CO)S(=O)(=O)c2ccc(-c3cccnc3)cc2O[C@H]1CN(C)C(=O)CC1CC1
    2	5
NCC[C@@H]1CC[C@H](NC(=O)NC2CCCCC2)[C@H](CO)O1
    5	6
CCOC(=O)C1=CC[C@@H](c2ccccc2)[C@@]12CC/C(=C\c1ccccc1)C2=O
    7	-3
Cc1noc(C)c1NC(=O)Nc1cccc2c1O[C@@H](CN(C)Cc1ccc(C(F)(F)F)cc1)[C@@H](C)CN([C@@H](C)CO)C2=O
    2	1
C[C@H](CO)N1C[C@H](C)[C@@H](CN(C)C(=O)NC2CCCCC2)Oc2c(NS(C)(=O)=O)cccc2C1=O
    -1&7	4&10
Cc1noc(C)c1S(=O)(=O)Nc1ccc2c(c1)C(=O)N([C@@H](C)CO)C[C@@H](C)[C@H](CN(C)S(=O)(=O)c1cn(C)cn1)OCCCC[C@@H](C)O2
    12	7
O=C(C[C@@H]1CC[C@H]2[C@@H](COC[C@H](O)CN2C(=O)C2CC2)O1)NCc1ccncc1
    13	7
COc1ccc(CN(C)C[C@@H]2OCCCC[C@@H](C)Oc3ccc(NC(=O)NC4CCCCC4)cc3C(=O)N([C@@H](C)CO)C[C@@H]2C)cc1
    ?	nt
CN1C(=O)c2cc(NC(=O)c3cscn3)ccc2OC[C@H]2O[C@@H](CC(=O)N3CCOCC3)CC[C@@H]21
    3	4
CCOC(=O)c1cc2c(c(-c3cccc(-c4cccc(OC)c4)c3)n1)[C@H](CCO)N(S(=O)C(C)(C)C)C2 (stereo partly drawn)
    9	13
C[C@H](CO)N1C[C@H](C)[C@H](CN(C)S(=O)(=O)c2ccc(F)cc2)Oc2ccc(NC(=O)CCC(F)(F)F)cc2CC1=O
    -13	-5
C[C@@H]1CN([C@H](C)CO)C(=O)c2cc(NC(=O)Cc3ccccc3)ccc2O[C@@H](C)CCCCO[C@H]1CN(C)Cc1ccc(Cl)c(Cl)c1
    ?	nt
CC(C)NC(=O)N(C)C[C@H]1Oc2ccc(NS(C)(=O)=O)cc2CC(=O)N([C@H](C)CO)C[C@H]1C
    16	14
COc1ccc2c3c([nH]c2c1)[C@H](CO)N(C(=O)Nc1ccc(F)cc1)CC31CN(C(=O)c2ccccn2)C1
    -7	-13
C/C=C/c1cnc2c(c1)C(=O)N([C@H](C)CO)C[C@@H](C)[C@H](CN(C)C(=O)Nc1c(C)noc1C)O2
    20	24
COc1cccc(C#Cc2ccc([C@H]3[C@@H](CO)N4C(=O)CN(C(C)=O)C[C@H]34)cc2)c1
    ?	nt
CCNC(=O)[C@H]1[C@H](CO)[C@H]2Cn3c(ccc(C4=CCCCC4)c3=O)[C@@H]1N2CC
    6	8
CCC(=O)N[C@H]1CC[C@H](CCn2cc(CN(C)C)nn2)O[C@H]1CO
    0	4
C[C@H]1CCCCO[C@H](CN(C)C(=O)Nc2ccc3c(c2)OCO3)[C@@H](C)CN([C@@H](C)CO)C(=O)c2cc(NC(=O)C3CCCCC3)ccc2O1
    -16	-5
CC(C)NC(=O)N1CC(=O)N2[C@H](CO)[C@@H](c3ccc(C#CCN(C)C)cc3)[C@H]2C1
    9	5
Cc1ccc(-c2ccc3c(c2)O[C@@H](CN(C)C(=O)C2CCC2)[C@@H](C)CN([C@@H](C)CO)S3(=O)=O)cc1
    -22	-13
C/C=C/c1ccccc1[C@@H]1[C@@H](CO)N(C(=O)c2cccnc2)[C@H]1C#N
    1	-1
O=S(=O)(NCC[C@@H]1CC[C@@H](NS(=O)(=O)c2ccccc2Cl)[C@H](CO)O1)c1ccc(F)cc1
    -8	-9
CCN(C[C@H]1N[C@@H](CO)[C@@H]1c1ccc(C2=CCCC2)cc1)C(=O)c1ccncc1
    -2	1
COCC(=O)N1[C@@H](CO)[C@@H]2c3ccccc3N(C(=O)c3ccccc3F)C[C@@H]21
    7	5
CCNC(=O)C[C@@H]1CC[C@H](NC(=O)C2CCOCC2)[C@@H](CO)O1
    8	7
CCC(=O)N1Cc2cc(C(=O)Nc3nccs3)nc(-c3cccc(-c4ccccc4OC)c3)c2[C@H]1CCO
    -33	-8
CC=Cc1ccc2n(c1=O)C[C@@H]1[C@@H](CO)[C@H](C(=O)Nc3ccccc3)[C@H]2N1C(=O)CC1CC1 (mixture of isomers)
    0	-1
C[C@@H]1CN([C@@H](C)CO)C(=O)CCCn2nncc2CO[C@H]1CN(C)Cc1cccc2c1OCCCO2
    11	8
Cc1ccc(-c2ccc([C@@H]3[C@@H](CO)N4C(=O)CN(C(=O)CN5CCOCC5)C[C@H]34)cc2)cc1
    ?	nt
COc1ccc(C#Cc2ccc([C@@H]3[C@@H](CO)N4CCCCN(C(=O)c5ccncc5)C[C@H]34)cc2)cc1
    ?	nt
CC(C)NC(=O)Nc1ccc2c(c1)C(=O)N([C@H](C)CO)C[C@H](C)[C@@H](CN(C)C(=O)Nc1cccc3ccccc13)O2
    2	3
Cc1ccc(-c2ccc(C3[C@@H]4CN(S(=O)(=O)c5ccccc5)C[C@H]3N4)cc2)cc1 (stereo partly drawn)
    ?	9
COCC(=O)Nc1ccc2c(c1)[C@H]1C[C@H](CC(=O)NCc3ccncc3)O[C@@H](CO)[C@H]1O2
    11	13
Cn1cnc(S(=O)(=O)N[C@@H]2C=C[C@@H](CC(=O)Nc3ccccc3)O[C@H]2CO)c1
    9	5
C[C@H](CO)N1C[C@H](C)[C@H](CN(C)C(=O)c2cnccn2)Oc2ncc(-c3cccc(C#N)c3)cc2C1=O
    16	17
C/C=C/c1ccc2c(c1)O[C@H](CN(C)C(=O)NCCC)[C@H](C)CN([C@@H](C)CO)S2(=O)=O
    -5	-4
C[C@@H]1CN([C@H](C)CO)C(=O)c2cccc(NC(=O)NC3CCCCC3)c2O[C@H]1CN(C)C(=O)Nc1ccc(C(F)(F)F)cc1
    -28	-25
COc1cccc(S(=O)(=O)N(C)C[C@@H]2Oc3ncc(C#CCC(C)C)cc3C(=O)N([C@H](C)CO)C[C@H]2C)c1
    -18	-13
CC(C)NC(=O)Nc1ccc2c(c1)CC(=O)N([C@H](C)CO)C[C@@H](C)[C@@H](CN(C)C(=O)Nc1ccccc1)O2
    4	8
CCCNC(=O)[C@@H]1[C@@H](CO)[C@@H]2Cn3c(ccc(-c4ccc(OC)cc4)c3=O)[C@H]1N2CC
    8	0
C[C@H](CO)N1C[C@H](C)[C@@H](CN(C)C(=O)NC2CCCCC2)Oc2ccc(NS(=O)(=O)c3ccc(Cl)cc3)cc2C1=O
    7	-2
C[C@H](CO)N1C[C@H](C)[C@@H](CN(C)C(=O)Nc2ccccc2)Oc2ccc(NS(=O)(=O)c3ccc(Cl)cc3)cc2C1=O
    22	15
Cc1ccc(S(=O)(=O)N(C)C[C@@H]2OCCCC[C@H](C)Oc3ccc(NS(=O)(=O)c4c(C)noc4C)cc3C(=O)N([C@H](C)CO)C[C@H]2C)cc1
    ?	nt
C[C@H]1CN([C@@H](C)CO)C(=O)c2cc(-c3cncnc3)cnc2O[C@H]1CN(C)CC1CCOCC1
    10	-7
C[C@@H]1CN([C@H](C)CO)C(=O)c2cc(NS(=O)(=O)c3ccc(Cl)cc3)ccc2O[C@H]1CN(C)C(=O)Nc1ccccc1
    0	3
C/C=C/c1ccc2c(c1)O[C@H](CN(C)C(=O)Nc1ccc(OC)cc1)[C@H](C)CN([C@H](C)CO)S2(=O)=O
    -20	-18
COCC(=O)N(C)C[C@H]1Oc2ncc(-c3cccc(OC)c3)cc2C(=O)N([C@@H](C)CO)C[C@H]1C
    19	12
C[C@H]1CCCCO[C@H](CN(C)C(=O)Nc2ccccc2)[C@@H](C)CN([C@@H](C)CO)C(=O)c2cc(NC(=O)Nc3cccc4ccccc34)ccc2O1
    12	8
COCc1cn(CC[C@@H]2CC[C@@H](NC(=O)CCN3CCCCC3)[C@H](CO)O2)nn1
    9	13
CN1C(=O)c2cc(NS(C)(=O)=O)ccc2OC[C@@H]2O[C@@H](CC(=O)N3CCOCC3)CC[C@H]21
    23	28
C[C@@H]1CN([C@H](C)CO)S(=O)(=O)c2ccc(-c3ccccc3F)cc2O[C@@H]1CN(C)C
    -15	-1
COc1ccccc1NC(=O)N(C)C[C@@H]1Oc2ncc(Br)cc2C(=O)N([C@@H](C)CO)C[C@@H]1C
    -22	-11

# The listing continues:
# Every second line gives: Vaccinia inh	Vaccinia inh Venus
COc1ccc2c3c(n(C)c2c1)[C@@H](CO)N(S(=O)(=O)c1ccccc1)CC31CCN(C)CC1
    -23	-15
C[C@@H]1CCCCO[C@@H](CN(C)Cc2ccccc2)[C@@H](C)CN([C@@H](C)CO)C(=O)c2cc(NC(=O)c3ccncc3)ccc2O1
    -5	-17
Cc1ccccc1-c1ccc([C@H]2[C@@H](CO)N3CCCCN(C(=O)Nc4ccccc4)C[C@@H]23)cc1
    ?	nt
COc1cccc(S(=O)(=O)N(C)C[C@H]2Oc3ncc(C#CCC(C)C)cc3C(=O)N([C@@H](C)CO)C[C@@H]2C)c1
    ?	nt

# The list is partial; count on the stated rates, not on these rows.
